Source: PubChem BioAssay (ICCB-Longwood Screening Facility, Harvard Medical School)
MbtI inh = MbtI salicylate synthase inhibition; purified MbtI enzyme, fluorescence intensity read-out; inhibition, %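 (about 17 µg/mL by stock and volumes)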; 0.89% of 100,000 active;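 active = above 50% in both replicates, above 80% if mildly self-fluorescent; inactive = the rest, strongly fluorescent compounds included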;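 also: 0% = mean of negative and 100% = mean of positive controls; one replicate is shown; some compounds called inactive have numbers as strong as hits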
Target sequence (P9WFX0 whole entry, looked up): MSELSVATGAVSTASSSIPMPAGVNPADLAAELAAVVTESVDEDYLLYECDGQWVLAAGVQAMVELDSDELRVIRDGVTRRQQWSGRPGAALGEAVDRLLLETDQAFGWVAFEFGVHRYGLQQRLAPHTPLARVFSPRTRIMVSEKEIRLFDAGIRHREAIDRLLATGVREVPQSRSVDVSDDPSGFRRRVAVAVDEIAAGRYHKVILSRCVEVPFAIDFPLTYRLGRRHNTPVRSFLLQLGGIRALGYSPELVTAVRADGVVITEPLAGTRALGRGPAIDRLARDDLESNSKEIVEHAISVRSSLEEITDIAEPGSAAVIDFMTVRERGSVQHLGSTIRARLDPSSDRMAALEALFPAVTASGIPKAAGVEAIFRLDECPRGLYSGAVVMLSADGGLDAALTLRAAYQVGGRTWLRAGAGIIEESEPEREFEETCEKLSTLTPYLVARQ
PV pol inh = poliovirus RNA polymerase inhibition; poliovirus polymerase elongation, fluorescence polarization; active compounds read low; % elongation, % (compound at 16.7 µg/mL); 0.66% of 150,000 active; in the data active = % elongation below about 90%; also: some results filed as inactive read as strong as hits
Mtb MenB inh = Mtb MenB enzyme inhibition. inhibition, %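 (about 12 µg/mL by stock and volumes)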. AID 540299. 0.43% of 100,000 active. MenB enzyme assay, absorbance read-out; some hits fall short of the stated cut. P9WNP5;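 active = mean of two replicates above 30%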;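 also: 0% = no compound and 100% = wells with inactive enzyme; the first replicate is given; strong numbers were not always called active; inactives centre near -10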
Target sequence (P9WNP5 whole entry, looked up): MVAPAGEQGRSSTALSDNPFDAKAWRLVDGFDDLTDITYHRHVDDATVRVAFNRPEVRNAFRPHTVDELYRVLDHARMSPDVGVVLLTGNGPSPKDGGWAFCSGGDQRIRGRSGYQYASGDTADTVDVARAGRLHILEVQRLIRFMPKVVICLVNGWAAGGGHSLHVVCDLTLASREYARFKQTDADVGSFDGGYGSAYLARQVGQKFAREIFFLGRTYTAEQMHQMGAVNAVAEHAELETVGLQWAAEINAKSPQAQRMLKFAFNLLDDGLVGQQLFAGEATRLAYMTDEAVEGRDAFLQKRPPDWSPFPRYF
PV pol inh intensity = recorded beside PV pol inh, whose call it bears; % elongation; measured here: total intensity read-out; formula for this scale not given here;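 total fluorescence in place of polarization; lower means less elongation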
Numbers without * were called inactive; i = inactive; · = not tested or not shown.

SMILES	MbtI inh	PV pol inh	PV pol inh intensity	Mtb MenB inh
CC(=O)Nc1cccc(OCCCNC(=O)C2CCC2)c1	0	102	94	5
CC(OC(=O)c1ccccc1)C(=O)Nc1ccc2c(c1)OCCO2 (stereo not given)	-9	105	110	-36
N#CC(C#N)=C1C=C(c2ccc3c(c2)OCCO3)Oc2ccccc21	-5	111	126	-19
COC(=O)c1ccc(CNC(=O)c2cccc(F)c2)cc1	-10	105	106	-15
N#CCCn1cc(C(=O)CSc2n[nH]c(-c3ccc(Cl)cc3)n2)c2ccccc21	4	108	107	1
Cc1cc(C(=O)COC(=O)c2ccc3c(=O)n4c(nc3c2)CCC4)c(C)n1C	-52	98	86	-7
O=C(O)C1CC(O)CN1S(=O)(=O)c1cccc2nsnc12 (stereo not given)	2	101	102	-21
CCCCCCNc1nc(Nc2ccc(I)cc2)nc(OC)n1	-2	99	103	-60
CCOC(=O)c1c(CN(C)C)n(C)c2cc(Br)c(O)c(CN(C)C)c12	18	100	101	18
CC(Sc1nnnn1Cc1cccs1)C(=O)Nc1ccc(S(=O)(=O)N2CCCCC2)cc1 (stereo not given)	-8	103	104	-19
CCCS(=O)(=O)N1CCC(C(=O)N2CCC3(CC2)OCCO3)CC1	4	99	104	10
O=C(NCCCn1ccnc1)C1CC(c2cccc(Br)c2)=NO1 (stereo not given)	-6	103	105	-19
O=C(N=Nc1c(O)[nH]c2ccccc12)c1cccnc1	11	100	98	0
N#CC(C(=O)Nc1ccccc1)=C1CCCCC1	-2	101	106	7
S=c1[nH]nc2n1CCCCC2	10	100	100	-42
CCCS(=O)(=O)c1c(S(=O)(=O)CCC)c2c(N)cccn2c1C(=O)c1ccc(C)cc1	·	118	121	-22
COc1ccccc1NC(=S)N(Cc1ccccc1)Cc1cccn1Cc1ccc(F)cc1Cl	-6	101	105	-23
CC(C)c1nc(NCCO)c2nnn(Cc3ccccc3)c2n1	-12	104	105	-20
CC1CCN(S(=O)(=O)c2cc(C(=O)O)ccc2Cl)CC1	-11	99	103	-7
COc1ccc(N(C(=O)C(C)Oc2ccccc2)C2C=CS(=O)(=O)C2)cc1 (stereo not given)	2	101	99	0
O=C(CS(=O)(=O)c1ccccc1)Nc1ccc2c(c1)C(=O)NC2=O	167	106	105	-14
COC(=O)c1c[nH]n2c(NC3CCCCC3)c(-c3ccc(C)cc3)nc12	-10	103	108	-1
O=C(CSc1nncs1)NC(=O)NC1CCCC1	-10	103	99	-15
O=C(O)C1CC=CCC1C(=O)Nc1ccccc1 (stereo not given)	-9	102	100	-5
CC1CCCC(C)N1C(=O)COC(=O)c1ccccc1Oc1ccccc1 (stereo not given)	-10	103	107	·
COc1ccc2c(C)cc3nncn3c2c1	-41	104	105	·
O=C(CSc1nnc(-c2sc3ccccc3c2Cl)o1)N1CCN(C(=O)c2ccco2)CC1	50	93	103	9
c1ccc(-c2nn3c(-c4ccccc4)nnc3s2)cc1	19	101	105	-3
CNC(=O)CSc1cn(CC(=O)N(C(C)C)C(C)C)c2ccccc12	-11	99	102	-23
CCN(CC)C(=O)N[C@H]1C=C2c3cccc4[nH]cc(c34)C[C@H]2N(C)C1	i	83	127	-5
Cc1cc(Nc2ccc(O)cc2)n2c(nc3ccccc32)c1C#N	2	100	101	-47
CCOC(=O)N1CCN(Cc2sccc2C)CC1	-3	101	101	-15
CC12CC(NC(=O)N1c1ccc(C(=O)NCc3ccccc3)cc1)c1ccccc1O2 (stereo not given)	4	103	107	-17
Cc1n[nH]c(C)c1C12CC3CC(CC(C3)C1)C2	·	111	112	-5
CCc1cccc(NC(=O)c2cc3cc4ccc(C)cc4nc3s2)c1	4	105	102	-19
O=C(Nc1ccccc1SCC(O)Cn1ccc2ccccc21)c1ccc(Cl)cc1 (stereo not given)	-6	99	103	-28
Cn1c(SCc2cc(=O)n3ccsc3n2)nnc1C1CC1	13	102	103	-13
CCN(C(=O)CSC1=NCCS1)c1ccccc1	7	104	106	·
O=C(NC1=NCCS1)c1cc(-c2ccc3c(c2)OCO3)nc2c1cnn2Cc1ccc(Cl)cc1	-70	106	116	-19
O=C(Nc1nnc(C2CC2)s1)C(c1ccccc1)c1ccccc1	-12	104	105	·
CN(C)P(=O)(OCC(F)(F)F)N(C)C	-5	102	100	-48
CC(C)NC(=O)Cn1nc(Cc2ccncc2)c2ccccc2c1=O	-4	101	105	5
O=C(Cc1cn2ccsc2n1)N/N=C/c1ccc(N2CCCCC2)cc1	-27	102	102	-12
CC1=C(C(=O)Nc2ccc(C(=O)NCC3COCCO3)cc2)SCCO1 (stereo not given)	6	102	103	-20
CN1C(=O)c2ccccc2N2C(=O)CCC12C(=O)OCc1ccccc1F (stereo not given)	49	101	98	8
COCCn1c(C)cc(C(=O)COC(=O)c2cccc(O)c2)c1C	12	95	91	13
O=C(N1CCN(CCO)CC1)C(F)(F)C(F)(F)C(F)(F)C(F)(F)F	-1	103	105	4
O=C(CC1OCCN(Cc2ccccc2)C1=O)Nc1ccc2c(c1)OCCO2 (stereo not given)	3	105	111	-5
Cc1c(C(=O)N2CCN(c3cccc(C(F)(F)F)c3)CC2)oc2ccccc12	·	100	102	-8
O=S(=O)(c1ccccc1)c1cc2ccccc2oc1=Nc1ccccc1	8	104	102	-18
CC(=O)Oc1ccc2c(c1C)CCCC2	-12	103	104	-25
N#CCCN(Cc1ccccc1)S(=O)(=O)c1ccc(F)cc1	8	103	101	-15
NC(=O)c1ccc(NC(=O)COC(=O)c2ccccc2I)cc1	-5	105	107	·
CCOC(=O)c1ccc(-n2sc3ccccc3c2=O)cc1	99	106	103	-16
Cc1ccc(COC(=O)c2ccc3c(c2)C(=O)N(CCCN2CCOCC2)C3=O)cc1	1	95	97	7
COc1cc2[nH]c(=S)nc(NCCCOC(C)C)c2cc1OC	8	101	99	-16
C1CCN2CC3C(CC2C1)CN1CCCCC31 (stereo not given)	-1	102	101	-24
COc1ccc(CC(=O)OCC(=O)Nc2ccc3c(c2)OCCO3)cc1	-14	105	108	-20
O=C(Nc1ccccc1)N1CCCC2CCCCC21 (stereo not given)	-6	104	102	-20
O=C(c1cccc(NC(=O)N2CCSc3ncccc32)c1)N1CCC2(CC1)OCCO2	-12	102	102	3

Record cards (already shown). Screens in order: MbtI inh	PV pol inh	PV pol inh intensity	Mtb MenB inh
CCOC(=O)c1ccc(-n2sc3ccccc3c2=O)cc1 in the list: 99	106	103	-16
CC(=O)Oc1ccc2c(c1C)CCCC2 in the list: -12	103	104	-25
COCCn1c(C)cc(C(=O)COC(=O)c2cccc(O)c2)c1C in the list: 12	95	91	13

Next section.
SMILES	MbtI inh	PV pol inh	PV pol inh intensity	Mtb MenB inh
CCS(=O)(=O)c1nc2ccccc2n1CC(=O)N(C(C)C)C(C)C	13	107	106	-28
COCc1cc(C)nc2sc(C(=O)N3CCN(c4ccccc4)CC3)c(N)c12	-2	100	93	-24
COCC(C)n1c(SCc2cc(=O)n3cc(C)ccc3n2)nc2ccccc2c1=O (stereo not given)	-62	102	110	-19
CSc1nc(C)nc(Nc2cccc(C(F)(F)F)c2)c1C#N	17	98	105	-10
CCOc1nc(Cl)nc(N2CCCCC2C)n1 (stereo not given)	·	106	104	-15
Cc1ccc2c(cnn2C(=O)CCCC(=O)O)c1	13	103	105	-2
O=C1/C(=C/c2ccc(Cl)cc2)COC/C1=C\c1ccc(Cl)cc1	-5	103	113	2
CCOC(=O)COc1cc(=O)n(CC)c2ccccc12	6	101	98	-4
Cc1ccc(S(=O)(=O)CCc2nnc(NC(=O)CCCC(=O)Nc3cc(C)on3)s2)cc1	-7	106	102	-24
Cc1nn(S(=O)(=O)N2CCOCC2)c(C)c1Cl	-5	100	102	18
COc1ccc(CCN=Cc2ccc(Oc3nccc(C(F)(F)F)n3)cc2)cc1OC	-5	106	101	-18
COc1ccc(CC(=O)Nc2sccc2C#N)cc1	-7	102	105	·
CCOC(=O)c1ccc(NC2CCCc3c2n(C)c2ccc(C)cc32)cc1 (stereo not given)	-8	102	98	-20
COc1ccc(OC)c(Nc2nc3cc(C)ccc3cc2C)c1	151	98	101	-5
CN(C)S(=O)(=O)c1ccc(C(=O)N2CCN(Cc3nc4sc5c(c4c(=O)[nH]3)CCCC5)CC2)cc1	-6	102	109	-8
CCCCn1c(COc2ccc(OC)cc2)nc2cc(S(=O)(=O)N3CCOCC3)ccc21	-1	106	101	-5
c1ccc(-c2csc(N3CCc4ccccc43)n2)cc1	12	101	103	-50
c1ccc2sc(COc3ncnc4sccc34)nc2c1	14	119	136	-28
O=C(CCSc1ccccc1)Nc1nnc(-c2ccccc2)o1	-17	100	105	-24
CN(C)S(=O)(=O)c1ccc(Cl)c(C(=O)OCC(=O)C(C)(C)C)c1	-4	102	107	0
CC1CCC(C(C)C)C(NC(=S)Nc2cccc(F)c2)C1 (stereo not given)	-15	105	109	-56
CN1CCc2c(sc3nc(=S)[nH]c(N)c23)C1	i	103	101	6
Cn1c(=O)cc(SCC(=O)NCCN2CCN(c3cccc(Cl)c3)CC2)c2ccccc21	-8	100	101	-25
CCCc1cc(NCCc2ccccc2)n2c(nc3ccccc32)c1C#N	-14	99	102	-28
O=C(COC(=O)[C@@H]1CCCN1C(=O)c1cccs1)Nc1ccccc1	7	101	99	-21
Cc1cc2nnc(SCCC(=O)O)n2c2ccccc12	134	101	104	10
CS(=O)(=O)Nc1ccc2c(c1)C(=O)NC2=O	6	100	102	-40
Cn1c(-c2ccccn2)[n+](C)c2ccccc21	23	104	105	·
CCOC(=O)C1C(=O)C=C(N2CCOCC2)CC1c1cccc(OC)c1 (stereo not given)	·	103	104	2
O=C1NCC(O)=C1/C=N/Nc1ccccc1	45	103	103	0

Ordered by length of the SMILES (rising): 3 of the compounds above
SMILES	MbtI inh	PV pol inh	PV pol inh intensity	Mtb MenB inh
CS(=O)(=O)Nc1ccc2c(c1)C(=O)NC2=O	6	100	102	-40
CC1CCC(C(C)C)C(NC(=S)Nc2cccc(F)c2)C1 (stereo not given)	-15	105	109	-56
CCOC(=O)C1C(=O)C=C(N2CCOCC2)CC1c1cccc(OC)c1 (stereo not given)	·	103	104	2

Looked up above.
Result for COc1ccc(OC)c(Nc2nc3cc(C)ccc3cc2C)c1 under Mtb MenB inh: -5
Result for CCOC(=O)C1C(=O)C=C(N2CCOCC2)CC1c1cccc(OC)c1 (stereo not given) under PV pol inh intensity: 104

Back to the main list; the 4 compounds before the break are reprinted first.
SMILES	MbtI inh	PV pol inh	PV pol inh intensity	Mtb MenB inh
CS(=O)(=O)Nc1ccc2c(c1)C(=O)NC2=O	6	100	102	-40
Cn1c(-c2ccccn2)[n+](C)c2ccccc21	23	104	105	·
CCOC(=O)C1C(=O)C=C(N2CCOCC2)CC1c1cccc(OC)c1 (stereo not given)	·	103	104	2
O=C1NCC(O)=C1/C=N/Nc1ccccc1	45	103	103	0
CC(=O)Nc1ccc(/C=C2/C(=O)N=C(N)N2C)cc1	15	100	101	-28
CCN1C(=O)/C(=C/c2ccc3c(c2)OCO3)OC1=S	-7	101	102	-31
Cc1ccc(-n2nnc3c(sc4nc(C)cc(C)c43)c2=O)cc1	-4	101	106	9
O=C(/C=C/c1c(Cl)nc2ccccn12)OCC1CCCO1 (stereo not given)	22	106	103	10
N#Cc1ccccc1CO/N=C/c1ccc(N2CCOCC2)cc1	-7	102	95	9
O=C(O)CCCSc1nc2ccccc2[nH]1	-12	102	106	·
COc1cc(C(=O)N=C2C(C)=CC(=O)C=C2C)cc(OC)c1OC	100	102	102	11
CCc1n[nH]c(=O)n1Nc1ccccc1	·	102	104	-4
CCOC(=O)c1cc2c(=O)n3ccccc3nc2n(CC2CCCO2)c1=NC(C)=O (stereo not given)	117	100	100	-51
Cn1nnc(-c2ccc(C(=O)O)cc2)n1	-6	99	101	4
O=C(C1c2ccccc2Oc2ccccc21)N(Cc1ccco1)C1CCS(=O)(=O)C1 (stereo not given)	0	104	110	4
CC(=O)NC1(c2ccccc2)CCN(C)C(c2ccccc2)C1C (stereo not given)	-6	103	103	-6
COc1ccc(-n2cc(C(=O)Nc3ccc(C(=O)N4CCCCC4)cc3)nn2)cc1	-1	104	103	-2
CCC(Oc1cccc(Cl)c1)C(=O)NN1CCOCC1 (stereo not given)	-21	100	104	-2
COc1ccc(-c2cc(C(F)(F)F)n3nc(C(=O)N4CCCCC4C)cc3n2)cc1 (stereo not given)	-7	100	104	8
Cn1c(S(=O)(=O)CC(N)=O)nc2ccccc21	2	102	98	-1
COC(=O)c1ccc2c(=O)nc3n(c2c1)Cc1ccccc1-3	-23	101	107	·
CN1N=C(C(=O)Nc2nc3ccc(F)cc3s2)CCC1=O	-4	96	84	-28
COC(=O)C1CSCN1S(C)(=O)=O (stereo not given)	-3	106	103	-14
CCNC(=O)N1c2ccc(CC)cc2C(C)=CC1(C)C	-5	104	107	-4
Cc1cc(C)c(NC(=O)COC(=O)C(O)c2ccccc2)c(C)c1 (stereo not given)	1	106	107	-22
CS(=O)(=O)/C(C#N)=C/Nc1cnccn1	1	109	115	-18
NNc1c(F)c(F)nc(F)c1F	-4	105	106	-20
CCN(Cc1ccccc1)C(=O)C(C)Oc1ccccc1 (stereo not given)	·	108	112	-4
c1ccc(Nc2ccc(N3CCCC3)nn2)cc1	6	103	101	-21
O=C(Cc1ccccc1)Nc1ccccc1C(=O)O	-11	101	101	-68
